# Source: PubChem BioAssay (ICCB-Longwood Screening Facility, Harvard Medical School)
# PV pol inh: inhibitors of poliovirus RNA polymerase binding and polymerization; poliovirus polymerase elongation, fluorescence polarization; stronger effect = lower value; P03300; 0.66% of 150,000 active; AID 588519; % elongation, % (compound at 16.7 µg/mL); in the data active = % elongation below about 90%; note: some results filed as inactive read as strong as hits
# Target sequence (P03300 1749-2209 limits assumed): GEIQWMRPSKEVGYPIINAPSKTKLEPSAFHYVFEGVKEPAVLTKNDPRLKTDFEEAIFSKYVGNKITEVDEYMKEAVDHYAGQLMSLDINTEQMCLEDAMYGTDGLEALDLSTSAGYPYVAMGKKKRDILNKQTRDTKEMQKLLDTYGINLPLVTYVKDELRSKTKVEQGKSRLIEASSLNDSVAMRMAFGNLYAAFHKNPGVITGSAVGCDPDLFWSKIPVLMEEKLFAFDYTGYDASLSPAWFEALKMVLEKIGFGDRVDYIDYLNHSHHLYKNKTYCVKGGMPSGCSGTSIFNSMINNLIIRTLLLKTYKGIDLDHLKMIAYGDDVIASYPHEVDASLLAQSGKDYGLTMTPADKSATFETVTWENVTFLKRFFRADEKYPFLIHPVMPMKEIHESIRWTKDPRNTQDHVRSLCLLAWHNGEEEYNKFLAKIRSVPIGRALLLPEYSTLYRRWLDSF
# PV pol inh intensity: second read-out of PV pol inh, no call of its own (marks repeat the call); % elongation; measured here: total intensity read-out; formula for this scale not given here;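 total fluorescence in place of polarization; lower means less elongation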
# * hit, by the source's call. This is a subset. The share of hits here may be higher or lower than overall.
SMILES,PV pol inh,PV pol inh intensity
CC(C)CNC(=O)Nc1cc(C(=O)NCc2ccc(C(C)C)cc2)ccc1N1CCCC1,109,100
Cc1ccc(C)c(N2CCN(c3nc4ccc(C(=O)c5ccccc5)cc4n4cnnc34)CC2)c1,108,109
CS(=O)(=O)c1ncc(Cl)c(C(=O)Nc2c(C(=O)Nc3ccccc3)oc3ccccc23)n1,121,114
O=C1CC(c2ccc(Cl)cc2)Sc2nc(-c3ccc(F)cc3)nn21 (stereo not given),106,107
COc1ccc(Nc2cc(C(=O)NCCCN(C)C3CCCCC3)c3ccccc3n2)c(OC)c1,109,109
CCOc1ccccc1CNC(=O)C1CCN(S(=O)(=O)c2c(C)noc2/C=C/c2ccc(C)cc2)CC1,103,99
CC(C)c1ccc(-c2noc(SCC(=O)N3CCCCC3)n2)cc1,104,105
Cc1ccc(NC(=O)CCn2c(=O)c3cccn3c3ccccc32)cc1Cl,115,116
CC(=O)c1cc(-c2ccccc2)n(CCC(=O)Nc2ccc(C)cc2C)c1C,102,112
CCc1ccccc1NC(=O)Nc1c(C)n(C)n(-c2ccccc2)c1=O,108,107
CCc1ccccc1NC(=O)Cn1c(=O)n(CCCCCC(=O)NCc2ccc(C)cc2)c(=O)c2sccc21,102,106
CCN(CC)C(=O)CSc1nc2cc3c(cc2c(=O)n1CCCCCC(=O)NCCc1ccc(OC)c(OC)c1)OCO3,102,98
CCOC(=O)C1CCCN(c2ncnc3c2nnn3C)C1 (stereo not given),111,98
CCOc1ccc(C(=O)c2c(N)c(-c3nc(-c4ccc5c(c4)OCO5)cs3)c3ccccn23)cc1,105,108
COc1ccc2c(c1)Cc1sc(NC(=O)c3ccc(Cl)cc3)nc1-2,88*,88*
CNC(=O)C1CCCN(c2nnc(C)c3c(C)n(-c4ccccc4)nc23)C1 (stereo not given),97,101
CCCOc1ccc(C(=O)Nc2c(C(=O)c3ccc(C)cc3)oc3ccccc23)cc1,107,114
CCOc1ccc(-n2c(=O)c3sc4ccccc4c3n(Cc3ccc(F)cc3)c2=O)cc1,106,109
CCOc1ccc2nc(NC(=O)c3ccccc3)sc2c1,107,112
COc1ccc(C(=O)CCC(=O)Nc2cccc(C(C)=O)c2)cc1,110,118
COc1ccc(-c2nc(CSCC(=O)N3CCN(c4ccc(OC)cc4)CC3)c(C)o2)cc1,101,101
CC(=O)N1CCc2cc(S(=O)(=O)NC(CC(C)C)C(=O)NCCc3cccc(C)c3)ccc21 (stereo not given),105,106
COc1cccc(OCC(=O)NC2CC(=O)N(c3cccc(OC)c3)C2)c1 (stereo not given),110,99
COc1cc(-c2noc(-c3ccc(N4CCN(C)CC4)c([N+](=O)[O-])c3)n2)cc(OC)c1OC,109,98

# A stretch from further up:
SMILES,PV pol inh,PV pol inh intensity
CS(=O)(=O)c1ncc(Cl)c(C(=O)Nc2c(C(=O)Nc3ccccc3)oc3ccccc23)n1,121,114
O=C1CC(c2ccc(Cl)cc2)Sc2nc(-c3ccc(F)cc3)nn21 (stereo not given),106,107
COc1ccc(Nc2cc(C(=O)NCCCN(C)C3CCCCC3)c3ccccc3n2)c(OC)c1,109,109
CCOc1ccccc1CNC(=O)C1CCN(S(=O)(=O)c2c(C)noc2/C=C/c2ccc(C)cc2)CC1,103,99
CC(C)c1ccc(-c2noc(SCC(=O)N3CCCCC3)n2)cc1,104,105
Cc1ccc(NC(=O)CCn2c(=O)c3cccn3c3ccccc32)cc1Cl,115,116
CC(=O)c1cc(-c2ccccc2)n(CCC(=O)Nc2ccc(C)cc2C)c1C,102,112
CCc1ccccc1NC(=O)Nc1c(C)n(C)n(-c2ccccc2)c1=O,108,107
CCc1ccccc1NC(=O)Cn1c(=O)n(CCCCCC(=O)NCc2ccc(C)cc2)c(=O)c2sccc21,102,106
CCN(CC)C(=O)CSc1nc2cc3c(cc2c(=O)n1CCCCCC(=O)NCCc1ccc(OC)c(OC)c1)OCO3,102,98
CCOC(=O)C1CCCN(c2ncnc3c2nnn3C)C1 (stereo not given),111,98
CCOc1ccc(C(=O)c2c(N)c(-c3nc(-c4ccc5c(c4)OCO5)cs3)c3ccccn23)cc1,105,108
COc1ccc2c(c1)Cc1sc(NC(=O)c3ccc(Cl)cc3)nc1-2,88*,88*
CNC(=O)C1CCCN(c2nnc(C)c3c(C)n(-c4ccccc4)nc23)C1 (stereo not given),97,101
CCCOc1ccc(C(=O)Nc2c(C(=O)c3ccc(C)cc3)oc3ccccc23)cc1,107,114
CCOc1ccc(-n2c(=O)c3sc4ccccc4c3n(Cc3ccc(F)cc3)c2=O)cc1,106,109
CCOc1ccc2nc(NC(=O)c3ccccc3)sc2c1,107,112
COc1ccc(C(=O)CCC(=O)Nc2cccc(C(C)=O)c2)cc1,110,118
COc1ccc(-c2nc(CSCC(=O)N3CCN(c4ccc(OC)cc4)CC3)c(C)o2)cc1,101,101

# Other results:
SMILES,PV pol inh,PV pol inh intensity
CCC(CC)c1nn2cc(-c3ccccc3)nc2s1,102,99
CCN(CCCNC(=O)c1cc2cc3cc(OC)ccc3nc2s1)c1cccc(C)c1,116,116
Cc1nc(-n2nc(C)c(Cc3ccccc3Cl)c2C)sc1C(=O)N1CCCCC1C (stereo not given),107,105
Cc1ccc(NC(=O)c2cc(S(=O)(=O)NCCC3=CCCCC3)ccc2F)cc1F,99,103
Cc1ccc(CNC(=O)Nc2cc(C(=O)NCc3cccc(F)c3)ccc2N2CCCC2)cc1,108,99
CC(C)(C)OC(=O)N1CCc2nc(N3CCN(c4ncccn4)CC3)ncc2C1,108,108
COc1ccc(CCNC(=O)c2cc3c(s2)-c2c(C)cccc2OC3)c(OC)c1,102,111
Cc1ccc(-n2ncc(C(=O)N3CCN(c4ccc(Cl)cc4)CC3)c2C2CCN(C(=O)OC(C)(C)C)CC2)c(C)c1,100,100
CCN(CC)C(=O)C1CCN(c2nnc(C)c3c(C)n(-c4ccc(Cl)cc4)nc23)CC1,106,103
O=C(NCc1ccc(F)cc1)c1ccc2c(c1)nnn2C1CCCC1,114,99
CCOC(=O)C1CCN(C(=O)c2nn(-c3ccc(OC)c(Cl)c3)c(=O)c3c2c2ccccc2n3C)CC1,107,110
COC(=O)c1ccccc1NC(=O)C(Cc1ccccc1)N1Cc2ccccc2C1=O (stereo not given),111,113
CCOc1ccccc1CNC(=O)c1ccc(NC(=O)N2CCSc3ncccc32)cc1,109,112
Cc1cccc(N2CCN(c3ncnc4c3c(-c3ccccc3)cn4-c3ccccc3)CC2C)c1 (stereo not given),103,99
Cc1cc(C)cc(NC(=O)Cn2c(=O)n(Cc3ccco3)c(=O)c3oc4ccccc4c32)c1,110,105
COc1ccc(C)cc1NC(=O)c1cc2ccccn2n1,101,105
Cc1nc(N2CCCC2)ncc1C(=O)NCc1cccc(Cl)c1,102,109
CCOc1cccc(C(=O)Nc2ccc(NC(=O)c3ccc(Br)cc3)cc2)c1,105,98
Cc1ccc(CNC(=O)C(C)n2ccc3cc(S(=O)(=O)N4CCCC4)ccc32)cc1 (stereo not given),128,125
CCOc1ccccc1CNC(=O)Cn1cc2c(n1)-c1c(oc(C(=O)N3CCCC3)c1C)CC2,107,106
CCc1ccccc1NC(=O)Cn1c(=O)n(CCc2ccccc2)c(=O)c2sc3ccccc3c21,100,100
CC(C)c1nnc(NC(=O)c2nc(SCc3ccc(F)cc3)ncc2Cl)s1,110,106
O=C(Nc1nc2c(F)cccc2s1)c1ccc2c(c1)OCCO2,105,105
COc1ccc(NC(=O)c2cc(-c3ccccc3O)no2)cc1,108,103
Cc1ccc(-c2noc(-c3nnn(CC(=O)Nc4cc(C)cc(C)c4)c3N)n2)cc1,108,104
Cc1ccc(C)c(Cn2c3ccccc3c3cnn(CC(=O)NC(C)CCc4ccccc4)c(=O)c32)c1 (stereo not given),106,105
CCOC(=O)c1c(C)[nH]c(C)c1S(=O)(=O)N(C)CC(=O)Nc1ccc(C)c(F)c1,113,109
O=C(Nc1ccc(Cl)cc1C(=O)c1ccccc1)c1cc(Cl)cc(Cl)c1,102,102
Cc1cccc(CNC(=O)C2CCC(CNS(=O)(=O)c3ccc4c(c3)CCCC(=O)N4)CC2)c1 (stereo not given),108,106
O=C(NCCc1ccccc1)c1cc(-c2cccc(Cl)c2)on1,103,109
Cc1ccc(NC(=O)CN2C(=O)C(c3ccc(F)cc3)=NC23CCCCCC3)c(C)c1,110,106
Cc1cc(C)c2oc(-c3ccc(NC(=O)COc4ccccc4C)cc3)nc2c1,108,110
Cc1cccc(OCC(=O)OCc2cc(=O)n3nc(C4CCCCC4)sc3n2)c1,109,107
O=C(Nc1ccc(Oc2ccccc2)cc1)c1ccc(F)c(S(=O)(=O)N2CCN(c3cccc(Cl)c3)CC2)c1,98,105
CCC1CN(C(=O)N2CCC(C(=O)NCCc3ccc(C)cc3)CC2)c2ccccc2O1 (stereo not given),112,117
Clc1cccc(CSc2nnc(C3CCNCC3)o2)c1,101,94

# Overlap with the part before: 2 compounds; new compounds follow.
SMILES,PV pol inh,PV pol inh intensity
CCC1CN(C(=O)N2CCC(C(=O)NCCc3ccc(C)cc3)CC2)c2ccccc2O1 (stereo not given),112,117
Clc1cccc(CSc2nnc(C3CCNCC3)o2)c1,101,94
c1cnc2c(c1)ncn2C1CCNCC1,107,107
Cc1ccc(C)c(NC(=O)CN2C(=O)COc3ccc(Cl)cc32)c1,107,113
Cc1ccc(C2N=C(N)Nc3nc4ccccc4n32)cc1 (stereo not given),105,102
Cc1noc(-c2ccc(-c3noc(-c4cccc(F)c4)n3)cc2)n1,105,109
CCOCCCN1C(=O)c2[nH]nc(-c3ccccc3O)c2C1c1ccc(CC)cc1 (stereo not given),102,104
CC1=C(C(=O)Nc2ccccc2C)C(c2ccccn2)n2ncnc2N1 (stereo not given),106,106
Cn1nnnc1SCCCNCc1ccc(-c2ccc(F)c(Cl)c2)o1,104,103
COC(=O)c1nnn(CC(=O)Nc2ccc(Br)c(C)c2)c1N,110,112
CC1=C(C(=O)Nc2cccnc2)C(c2ccccc2)n2nc(SCc3ccccc3)nc2N1 (stereo not given),106,107
COc1ccc(CCn2c3c(c(=O)[nH]c2=O)C(NC(=O)c2ccccc2F)(C(F)(F)F)C(=O)N3)cc1OC (stereo not given),106,106
O=C(COC(=O)C(Cc1c[nH]c2ccccc12)NC(=O)c1ccc(Br)cc1)c1ccc(Cl)cc1 (stereo not given),104,106
CCc1noc2nc(C)n(CC(=O)O)c(=O)c12,110,111
COc1ccc(-c2nc(Cn3c(=O)cc(C)c4c(C)nn(-c5ccccc5)c43)c(C)o2)cc1OC,113,108
Cc1ccc(C)c(NC(=O)Nc2cc3c(cc2N2CCCCC2)n(C)c(=O)n3C)c1,107,107
CCCCn1c(CNC(=O)C23CC4CC(CC(C4)C2)C3)nnc1SCC(=O)Nc1ccccc1,103,104
Cc1oc(-c2ccccc2)nc1Cn1c(=O)cc(-c2ccccc2)c2c(C)nn(C)c21,104,105
COCc1nc2cccnc2n1C1CCN(S(=O)(=O)N(C)C)CC1,107,111
CCN(CC)c1nc2c(S(=O)(=O)c3cccc(Cl)c3)nnn2c2ccsc12,104,105
COC(=O)c1ccccc1NC(=O)NCCc1c(C)nn(C)c1C,104,105
Cc1cccc(CNC(=O)C2CCN(S(=O)(=O)c3cccc4nonc34)CC2)c1,104,100
COc1cccc(CCNC(=O)c2ccc(Cn3c(SCc4ccccc4)nc4cccnc43)cc2)c1,106,110
O=c1c2oc3ccccc3c2n(Cc2cccc(F)c2)c(=O)n1Cc1ccc2c(c1)OCO2,107,111
COc1ccc(C(CC(=O)O)NC(=O)c2cc3ccccc3oc2=O)cc1OC (stereo not given),106,109
CCOc1ccc(NC(=O)c2ccc(F)c(S(=O)(=O)N(Cc3ccc(C(=O)OC)cc3)Cc3ccc(OC)c(OC)c3)c2)cc1,113,115
Cc1cccc(N2CCN(S(=O)(=O)c3cc(C(=O)Nc4ccccc4Cl)ccc3F)CC2)c1C,109,105
COc1ccc(C(=O)N2CC(=O)Nc3ccc(C)cc3C2c2ccc(F)cc2)c(OC)c1 (stereo not given),100,101
CCOC(=O)c1ccc(NC(=O)CC2C(=O)N(c3cccc(OC)c3)C(=O)N2Cc2cccnc2)cc1 (stereo not given),109,117
Cc1c(C(=O)Nc2ccccc2Br)oc2ccc(S(=O)(=O)N3CCCCCC3)cc12,103,107
COc1cccc(CNC(=O)Cn2c(SCC(=O)Nc3ccc(C)c(C)c3)nc3ccccc32)c1,108,113
CCc1ccc2oc(-c3cccc(NC(=O)c4ccc(-c5cccc([N+](=O)[O-])c5)o4)c3)nc2c1,106,113
Cc1ccc(N2C(=O)N(Cc3cccc(Cl)c3)c3ccccc3S2(=O)=O)cc1,107,105
Cc1ccc(-n2c3nc(=O)[nH]c(=O)c-3cc3c(C)nn(-c4ccccc4)c32)cc1Cl,111,110
COc1ccc(CCNC(=O)c2ccc3c(c2)CCN3S(=O)(=O)c2ccc(C)cc2)cc1,102,107
O=c1oc2ccc(Br)cc2cc1-c1csc(-c2ccc(Cl)cc2)n1,111,113
COc1ccc(OC)c(CCNC(=O)c2ccc3c(c2)N(Cc2ccccc2)CCS3)c1,104,109
O=c1c2ccccc2n2c(-c3ccccc3O)nnc2n1Cc1ccc(F)cc1,95,95
COc1ccc(Cn2cc(C(=O)c3ccc(C)cc3)c(=O)c3cc(OC)c(OC)cc32)cc1,112,111
COc1ccc(NC(=O)CN(C)S(=O)(=O)c2ccc3nc(C)sc3c2)cc1Cl,105,104
CCN1CCc2c(sc(-n3cccc3)c2C(C)NC(=O)Nc2ccc(C(=O)OC)cc2)C1 (stereo not given),124,124
CCCN(CCC)C(=O)CSc1nnc2cc(C)c3cc(C)cc(C)c3n12,104,102
Nc1ncc(S(=O)(=O)N2CCN(c3ccccc3)CC2)cn1,103,99
O=c1c2cc3c(cc2nc2sc(Nc4cccc([N+](=O)[O-])c4)nn12)OCO3,105,98
